miR-21 reporter: miR-21 reporter, rising signal; HeLa miR-21 FLuc reporter, luciferase, 48 h; Potency, µM (titrated, usually from 38.3 µM), inactives show at the highest dose reporter change, positive = more light; 340,000 tested, under 10 active; active = well fitted rising curve with a large enough effect; inconclusive = small, poorly fitted or top-dose-only effect; inactive = no such curve, though single readings can be large or run the other way;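 further: % of control where 0% means no effect; miR-21 action dims this reporter so a rising signal means less miR-21 action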
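HeLa miR-21-FLuc reporter line, endogenous miR-21; 2000 cells/well in DMEM/10% FBS; compound titration up to ~40uM final, 48 h, 37 degree Celsius; luciferase detection reagent, 15 min lysis, CCD luminescence.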
Rango-impB inh: inhibitors of Rango-importin beta complex formation; Potency, µM (series often up to 92.2 µM), for the others: at the highest dose inhibition of complex formation; Q14974; Rango CFP/YFP FRET sensor + importin beta, 45 min; AID 540263; actives 0.031% (n = 340,000); active = rising FRET ratio curve, often small or poorly fitted; inconclusive = mostly compound fluorescence or quenching in the first reads; inactive = flat curves in all reads;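 further: potency means the concentration at half of the fitted maximal effect; 0% = DMSO wells and 100% = buffer wells lacking importin beta; nearly all actives have a fitted effect of over 15% in size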
Target sequence (Q14974 whole entry, looked up): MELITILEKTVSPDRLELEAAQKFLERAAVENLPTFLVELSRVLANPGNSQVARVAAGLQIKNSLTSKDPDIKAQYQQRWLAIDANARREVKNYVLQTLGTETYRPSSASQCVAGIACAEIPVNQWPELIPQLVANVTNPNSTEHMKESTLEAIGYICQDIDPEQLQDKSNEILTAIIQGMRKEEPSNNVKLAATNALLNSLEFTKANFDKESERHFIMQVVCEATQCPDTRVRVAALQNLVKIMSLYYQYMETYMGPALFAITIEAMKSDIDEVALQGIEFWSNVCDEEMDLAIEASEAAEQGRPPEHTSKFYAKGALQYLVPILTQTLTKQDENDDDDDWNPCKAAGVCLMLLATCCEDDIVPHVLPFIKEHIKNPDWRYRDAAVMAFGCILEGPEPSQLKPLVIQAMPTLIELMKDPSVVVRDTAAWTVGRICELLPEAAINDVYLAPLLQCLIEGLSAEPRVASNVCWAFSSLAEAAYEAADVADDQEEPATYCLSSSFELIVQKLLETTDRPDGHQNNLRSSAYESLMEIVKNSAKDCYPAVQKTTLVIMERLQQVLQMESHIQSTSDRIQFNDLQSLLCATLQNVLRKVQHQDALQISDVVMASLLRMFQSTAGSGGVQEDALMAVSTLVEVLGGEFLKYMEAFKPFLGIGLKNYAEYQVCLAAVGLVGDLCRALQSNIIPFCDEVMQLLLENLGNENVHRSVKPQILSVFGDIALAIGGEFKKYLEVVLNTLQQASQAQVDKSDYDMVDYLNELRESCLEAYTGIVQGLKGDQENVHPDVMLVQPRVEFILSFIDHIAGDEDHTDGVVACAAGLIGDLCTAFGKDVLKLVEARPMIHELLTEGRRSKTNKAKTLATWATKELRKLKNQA
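FRET biosensor (snurportin 1 IBB flanked by EYFP and cerulean), 50 nM, with compound 5 min, then 0.125 microM importin beta in PBS, 1 mM DTT, 0.02% Tween-20, 0.1% BSA. CFP/YFP ratio read after 45 min at room temperature; pre-read flags interference.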
GLA inh pH 4.5: alpha-galactosidase A (human) inhibition, pH 4.5 | 230,000 tested, under 10 active | activity change, negative = inhibition, % at 105 µM | purified enzyme, 4-MU-alpha-Gal fluorescence, pH 4.5 | P06280; inconclusive = small, poorly fitted or top-dose-only inhibition, or a rising curve; inactive = flat fitted curve, though single readings scatter; no compound was filed as active;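 further: 0% = full activity with enzyme and -100% = basal without enzyme; dose as in the result columns while the protocol names 77 µM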
Rango dissoc inh: prevents RanGTP from dissociating the Rango-importin beta complex. O95149+P62826. Biochemical FRET Rango-importin beta, RanGTP-induced dissociation. Potency, µM (series often up to 46.1 µM), for inactives: at the highest dose activity change, negative = inhibition. actives 0.071% (n = 340,000); active means falling FRET ratio curve, often poorly fitted, with flat reads before Ran was added; inconclusive means other falling curves, or compound fluorescence or quenching; inactive means flat or rising ratio curve;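 further: potency means the concentration at half of the fitted maximal effect; % of control where 0% means no effect; nearly all actives have a fitted effect of over 45% in size; -100% = wells without RanGTP and RCC1; the record marks most hits as doubtful in a second field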
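FRET read at 45 min, room temperature: inhibitors block the CFP/YFP signal rise when RanGTP (0.6 uM Ran, 2 mM GTP, 0.2 uM RCC1) frees Rango (0.1 uM) from importin beta (0.25 uM). Pre-read after 5 min compound exposure flags interference.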
Active calls of the source: *; & = joins results of further samples. These rows are one share of the data; the hit share may differ from the screen's.

For COc1ccc(CN(C)C(=O)c2cc(S(=O)(=O)N3CCCCCC3)ccc2OC)cc1OC the results were miR-21 reporter 0%, Rango-impB inh 2.0% and Rango dissoc inh 1%.
For COc1ccc(C2=CC3=C(Br)C(=O)C(C)(O)C(=O)C3=CO2)cc1 (stereo not given) the results were miR-21 reporter -1%, Rango-impB inh inconclusive, GLA inh pH 4.5 -12&-2 and Rango dissoc inh inconclusive.
S=c1nccc(-c2ccc3c(c2)CCO3)[nH]1 was read as miR-21 reporter -11%, Rango-impB inh -1.3%, GLA inh pH 4.5 -13 and Rango dissoc inh -6%.
O=C(CCl)Nc1cc2[nH]c(=O)[nH]c2cc1Br was read as miR-21 reporter inconclusive, Rango-impB inh -3.9%, GLA inh pH 4.5 3 and Rango dissoc inh -5%.
CC(Sc1nnc(COc2ccc(Cl)cc2)n1Cc1ccco1)C(=O)N1CCNC1=O (stereo not given) was read as Rango-impB inh -1.7% and Rango dissoc inh -17%.
`COc1nccnc1NS(=O)(=O)c1ccc(NC(=O)c2ccccc2Br)cc1` gave miR-21 reporter -5%, Rango-impB inh 1.2% and Rango dissoc inh -3%.
`CS(=O)(=O)Cc1ccc(C(=O)NNC(=O)c2cc(-c3ccccc3)n[nH]2)cc1` gave Rango-impB inh 3.7% and Rango dissoc inh -10%.
`CCOc1cccc2cc(C(=O)NCc3ccc(C)cc3)c(=N)oc12` gave miR-21 reporter 0%, Rango-impB inh -2.4% and Rango dissoc inh 0%.
Screening COc1cccc(CC(NC(C)=O)C(=O)NC2CCN(c3c4c(nc5ncnn35)CCC4)CC2)c1 (stereo not given) returned Rango-impB inh -2.8% and Rango dissoc inh 1%.
COCc1cc(C)nc(OCC(=O)N/N=C/c2ccccc2)c1C#N was read as miR-21 reporter -9%, Rango-impB inh -0.9%, GLA inh pH 4.5 -1 and Rango dissoc inh -3%.
`Cc1cc(-c2cccnc2)c(C#N)c(SCC#N)n1` gave miR-21 reporter -7%, Rango-impB inh -0.8%, GLA inh pH 4.5 -8 and Rango dissoc inh -7%.
For CCOC(=O)c1ccc(NC(=O)Cn2cc3c(n2)CCC(C)C3)cc1 (stereo not given) the results were miR-21 reporter -2%, Rango-impB inh -2.8%, GLA inh pH 4.5 3 and Rango dissoc inh 12%.
O=C(Nc1nc2ccccc2n1Cc1ccc(Cl)cc1)c1ccco1 was read as miR-21 reporter -1%, Rango-impB inh 3.0%, GLA inh pH 4.5 -3 and Rango dissoc inh -7%.
For Cc1ccc(NC(=O)c2ccco2)cc1C the results were miR-21 reporter -38%, Rango-impB inh -2.1%, GLA inh pH 4.5 -13 and Rango dissoc inh -18%.
Screening O=C(CSc1nc2ccccc2c(=O)n1-c1ccccc1F)NC1CCS(=O)(=O)C1 (stereo not given) returned Rango-impB inh -4.7% and Rango dissoc inh 11%.
`Cc1nc2cc(NCc3cc([N+](=O)[O-])ccc3O)ccc2n1Cc1ccccc1` gave miR-21 reporter -17%, Rango-impB inh 1.5%, GLA inh pH 4.5 -7 and Rango dissoc inh 12%.
`COc1ccc(NC(=O)c2ccccc2N(Cc2ccccc2)S(C)(=O)=O)c(OC)c1` gave miR-21 reporter 0%, Rango-impB inh 1.8% and Rango dissoc inh 13%.
Cn1nc(C(=O)OCc2ccc(Br)cc2F)c2ccccc2c1=O was read as miR-21 reporter -1%, Rango-impB inh -1.9%, GLA inh pH 4.5 -5 and Rango dissoc inh 2%.
Screening CC12CC3CC(C)(C1)CC(C(=O)NCc1ccncc1)(C3)C2 returned miR-21 reporter 6%, Rango-impB inh 1.6% and Rango dissoc inh 7%.
For c1ccc(Cc2cc(-c3ccccc3)on2)cc1 the results were miR-21 reporter -59%, Rango-impB inh 0.1%, GLA inh pH 4.5 -15 and Rango dissoc inh inconclusive.
For Cc1c(Br)c([N+](=O)[O-])nn1CC(=O)NCc1ccco1 the results were miR-21 reporter -4%, Rango-impB inh 1.2%, GLA inh pH 4.5 4 and Rango dissoc inh 18%.
For NCC1CCN(c2nc3ccccc3c3c2CCCC3)CC1 the results were Rango-impB inh -0.3% and Rango dissoc inh -22%.
CC(C)N1CCCC(CNC(=O)CCc2nnc(CCCCc3ccccc3)o2)C1 (stereo not given) was read as miR-21 reporter -3%, Rango-impB inh -0.9%, GLA inh pH 4.5 2 and Rango dissoc inh -17%.
`CCOC(CCn1c(SCC(=O)NC2CCCC2)nc2ccccc2c1=O)OCC` gave miR-21 reporter -2%, Rango-impB inh -0.8% and Rango dissoc inh 0%.
`CC(C)CCNC(=O)Cn1c(=O)oc2cc(S(=O)(=O)N3CCc4ccccc43)ccc21` gave miR-21 reporter 20%, Rango-impB inh -3.2%, GLA inh pH 4.5 -2 and Rango dissoc inh -2%.
Screening C/C(=N\NC(=O)CNc1cccc2ccccc12)c1ccc(Br)s1 returned miR-21 reporter -8%, Rango-impB inh -0.5%, GLA inh pH 4.5 5 and Rango dissoc inh -6%.
For COc1ccc(NC(=O)CSc2nc3c(c(=O)n2C)SCC3)cc1OC the results were miR-21 reporter -3%, Rango-impB inh 2.4% and Rango dissoc inh 3%.
O=C(NCCCCc1ccccc1)C1CC(c2ccc([N+](=O)[O-])cc2)=NO1 (stereo not given) was read as miR-21 reporter -1%, Rango-impB inh -0.4%, GLA inh pH 4.5 -6 and Rango dissoc inh 14%.
Cc1ccc(OCC(=O)Nc2ccc3c4c(cccc24)CC3)c(C)c1 was read as miR-21 reporter 2%, Rango-impB inh 2.4%, GLA inh pH 4.5 14 and Rango dissoc inh -11%.
O=C(NCCCN1CCOCC1)c1ccc(CS(=O)(=O)c2c(Cl)cccc2Cl)o1 was read as miR-21 reporter -3%, Rango-impB inh -1.1%, GLA inh pH 4.5 2 and Rango dissoc inh -5%.

In the list so far, two contain two or more sulfur atoms:
Screening O=C(CSc1nc2ccccc2c(=O)n1-c1ccccc1F)NC1CCS(=O)(=O)C1 (stereo not given) returned Rango-impB inh -4.7% and Rango dissoc inh 11%.
For COc1ccc(NC(=O)CSc2nc3c(c(=O)n2C)SCC3)cc1OC the results were miR-21 reporter -3%, Rango-impB inh 2.4% and Rango dissoc inh 3%.

Continued.
Screening Cc1ccnc2ccc(P(=O)(c3ccccc3)c3ccccc3)cc12 returned miR-21 reporter -22% and GLA inh pH 4.5 0.
`Cc1cccc2nc(-c3cccc(NC(=O)c4ccc(Cl)cc4)c3)cn12` gave miR-21 reporter -6%, Rango-impB inh 3.3%, GLA inh pH 4.5 -11 and Rango dissoc inh -8%.
Clc1ccccc1CN1CCN(CCCc2ccccc2)CC1 was read as miR-21 reporter -5%, Rango-impB inh -0.6%, GLA inh pH 4.5 -6 and Rango dissoc inh 13%.
O=C(NCc1ccc(Cl)c(Cl)c1)c1cccnc1 was read as miR-21 reporter -5%, Rango-impB inh 0.5%, GLA inh pH 4.5 1 and Rango dissoc inh 0%.
Screening CSc1ccccc1NC(=O)COc1ccc(Cl)cc1C returned miR-21 reporter -48%, Rango-impB inh 0.1%, GLA inh pH 4.5 3 and Rango dissoc inh -3%.
`CC(=O)c1c(C)[nH]c2ccccc2c1=O` gave miR-21 reporter 0%, Rango-impB inh inconclusive, GLA inh pH 4.5 -2 and Rango dissoc inh -1%.
`CCCCCCCCCCC[N+](C)(C)CC/C=C1/c2ccccc2Sc2ccc(Cl)cc21` gave miR-21 reporter inconclusive, Rango-impB inh 6.5% and Rango dissoc inh 4%.
CCOC(=O)c1c(NC(=O)CSc2nnc3c(n2)[nH]c2ccc(F)cc23)sc(C(C)=O)c1C was read as miR-21 reporter -3%, Rango-impB inh -0.4%, GLA inh pH 4.5 4 and Rango dissoc inh -3%.
CC(C)(C)OC(=O)N/N=C/c1cccc([N+](=O)[O-])c1 was read as miR-21 reporter -41%, Rango-impB inh -1.8%, GLA inh pH 4.5 -12 and Rango dissoc inh 6%.
Cc1cc(C)n(-c2nc(N(C)C)nc(N(C)C)n2)n1 was read as miR-21 reporter -7%, Rango-impB inh 5.7%, GLA inh pH 4.5 0 and Rango dissoc inh 17%.

Next section (two carried over from the part before).
CC(C)(C)OC(=O)N/N=C/c1cccc([N+](=O)[O-])c1 was read as miR-21 reporter -41%, Rango-impB inh -1.8%, GLA inh pH 4.5 -12 and Rango dissoc inh 6%.
Cc1cc(C)n(-c2nc(N(C)C)nc(N(C)C)n2)n1 was read as miR-21 reporter -7%, Rango-impB inh 5.7%, GLA inh pH 4.5 0 and Rango dissoc inh 17%.
`CC(=O)n1cc([C@@H]2C=C(C(=O)N3CCOCC3)O[C@H](OCCCCO)C2)c2ccccc21` gave miR-21 reporter -2%, Rango-impB inh -3.2%, GLA inh pH 4.5 -5 and Rango dissoc inh 13%.
For Cn1c(CN2CCOCC2)nc2cc(NC(=O)COc3ccccc3)ccc21 the results were miR-21 reporter 0%, Rango-impB inh 1.1%, GLA inh pH 4.5 10 and Rango dissoc inh 3%.
For COc1cc2c(cc1OC)C(c1cccc(Cl)c1Cl)CC(=O)N2 (stereo not given) the results were miR-21 reporter -9%, Rango-impB inh 0.2% and Rango dissoc inh 0%.
`O=C(O)CCC(=O)Nc1ccc(F)cc1` gave miR-21 reporter -2%, Rango-impB inh 0.5%, GLA inh pH 4.5 -15 and Rango dissoc inh 5%.
`Cc1ccc(NC(=O)CN2C(=O)NC(Cc3c[nH]c4ccccc34)C2=O)cc1S(=O)(=O)N1CCCCC1` (stereo not given) gave miR-21 reporter 7%, Rango-impB inh -4.5%, GLA inh pH 4.5 -11 and Rango dissoc inh 1%.
`Cc1ccccc1N(CC(=O)NCCc1ccccc1)C(=O)CCC(=O)Nc1ccccn1` gave miR-21 reporter 4%, Rango-impB inh -4.3% and Rango dissoc inh 3%.
`COc1cc2[nH]c(=S)n(Cc3ccc(C)cc3)c(=O)c2cc1OC` gave miR-21 reporter 3%, Rango-impB inh 1.0%, GLA inh pH 4.5 2 and Rango dissoc inh -2%.
Cc1ccc2nc(CSc3nnc(-c4ccco4)n3-c3ccccc3)cc(=O)n2c1 was read as Rango-impB inh 11% and Rango dissoc inh 10%.
CCc1c(C)nc2cc(-c3ccc(OC)c(OC)c3)nn2c1N1CCC(C)CC1 was read as miR-21 reporter -24%, Rango-impB inh -3.2%, GLA inh pH 4.5 -1 and Rango dissoc inh 2%.
For O=C(NCCn1cc(SCc2ccccc2)c2ccccc21)c1ccccc1F the results were miR-21 reporter 4%, Rango-impB inh -0.5%, GLA inh pH 4.5 2 and Rango dissoc inh 15%.
For Cc1ccc(S(=O)(=O)N2CCC(C(=O)Nc3ccc(S(=O)(=O)N4CCCC4)cc3)CC2)cc1 the results were Rango-impB inh -0.1% and Rango dissoc inh 3%.
For O=C(OCc1cccs1)c1ccccc1NS(=O)(=O)c1ccc2c(c1)OCCO2 the results were miR-21 reporter -6%, Rango-impB inh 1.1%, GLA inh pH 4.5 -5 and Rango dissoc inh 8%.
Screening CC[C@]12c3[nH]c4cc(-c5ccco5)ccc4c3CCN1C(=O)[C@@H](CC(=O)NCCCn1ccnc1)C[C@@H]2C(=O)N1CCN(C(=O)c2ccco2)CC1 returned Rango-impB inh -0.1% and Rango dissoc inh 11%.
`Cc1nc(C(F)(F)F)c(C(=O)NC(=O)Nc2ccc(OC(F)(F)F)cc2)s1` gave miR-21 reporter -7%, Rango-impB inh 0.9%, GLA inh pH 4.5 -1 and Rango dissoc inh -1%.
COC(=O)c1ccc(NC(=O)C23CCC(C)(C(=O)O2)C3(C)C)cc1 (stereo not given) was read as miR-21 reporter -31%, Rango-impB inh -0.7% and Rango dissoc inh -1%.
O=C(O)c1cc([N+](=O)[O-])cc2c1nnn2O was read as miR-21 reporter 8%, Rango-impB inh -0.6%, GLA inh pH 4.5 -7 and Rango dissoc inh 20%.
Cc1cnn2c(C3CC3)ccnc12 was read as miR-21 reporter 6%, Rango-impB inh -5.2%, GLA inh pH 4.5 9 and Rango dissoc inh 1%.
`CC(C)CN(C)Cc1c(C(=O)N2CCc3ccccc3C2)nc2ccc(Cl)cn12` gave miR-21 reporter 11%, Rango-impB inh -1.5%, GLA inh pH 4.5 2 and Rango dissoc inh 9%.
`COc1ccc(OC)c(-c2nc(C)sc2CC(=O)O)c1` gave miR-21 reporter -3%, Rango-impB inh 4.7%, GLA inh pH 4.5 -1 and Rango dissoc inh 2%.
